HNF4A DNA FP: change in binding of human HNF4 alpha to DNA. P41235. HNF4a-FITC DNA binding, fluorescence polarization, 1 h. activity change, % at 10 µM. 0.3% of 360,000 active; in the data active = activity change above about 30%, passing the limit was not always enough;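 note: controls were the assay level and a saturating level of protein; the project sought stronger binding though the title names inhibitors; some compounds called inactive have numbers as strong as hits; positive values seem to mean higher polarization but the record does not say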
FGF22 binding: shifts melting point of recombinant human FGF22. Q9HCT0. recombinant FGF22 thermal shift, SYPRO orange fluorescence; percent of sucrose octasulfate shift, DMSO zero. calls only at 9.99 µM. 1.5% of 340,000 active. AID 651658;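 active = melting point raised past a set limit in the mean and every replicate; inconclusive = no clear call; three in four hits are not shown here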
UCH37 inh: inhibitors of human deubiquitinating enzyme UCH37 | Q9Y5K5 | purified proteasome/UCH37, Ub-AMC cleavage fluorescence | inhibition, % (concentration not given with the values) | 0.33% of 330,000 active | AID 588478;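 active = mean of two replicates above 20%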;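 note: 0% = compound-free wells with enzyme and 100% = wells lacking proteasome; stock transfer was 100 nL into about 20 µL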
Target sequence (Q9Y5K5 whole entry, looked up): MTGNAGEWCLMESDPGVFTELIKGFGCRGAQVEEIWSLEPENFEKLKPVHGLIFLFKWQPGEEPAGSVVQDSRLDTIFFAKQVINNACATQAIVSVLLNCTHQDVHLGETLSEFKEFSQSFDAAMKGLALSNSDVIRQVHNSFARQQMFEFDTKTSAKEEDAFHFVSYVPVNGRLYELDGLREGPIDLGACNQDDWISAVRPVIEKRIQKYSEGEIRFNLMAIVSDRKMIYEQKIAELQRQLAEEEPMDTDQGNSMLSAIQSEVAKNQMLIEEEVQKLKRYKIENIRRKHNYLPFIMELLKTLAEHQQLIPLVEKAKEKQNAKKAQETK
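assay system = human UCH37 enzyme supplied as purified proteasome complex | amount = proteasome at 0.15 nM in the dispensed enzyme solution | schedule = 30 min compound-proteasome preincubation then 25 min substrate reaction, room temperature | measured by = fluorescence, ex 355 nm, em 460 nm | benchmarks = no-proteasome wells (full inhibition) and compound-free wells (no inhibition)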
B2AR ag: activates human beta-2 adrenergic receptor causing internalization; P07550; Am2.2-beta2AR cells, FAP receptor internalization, flow cytometry; reference of the scale not given here; response, % (test concentration not listed); 0.43% of 340,000 active; AID 504454;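 active = response above a set limit, near 3 SD of response in nonfluorescent compounds, cut at about 42% in these data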;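 note: stock transfer was 100 nL into about 11 µL; a reference agonist was the positive control; negative values mostly stem from fluorescent compounds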
Target sequence (P07550 whole entry, looked up): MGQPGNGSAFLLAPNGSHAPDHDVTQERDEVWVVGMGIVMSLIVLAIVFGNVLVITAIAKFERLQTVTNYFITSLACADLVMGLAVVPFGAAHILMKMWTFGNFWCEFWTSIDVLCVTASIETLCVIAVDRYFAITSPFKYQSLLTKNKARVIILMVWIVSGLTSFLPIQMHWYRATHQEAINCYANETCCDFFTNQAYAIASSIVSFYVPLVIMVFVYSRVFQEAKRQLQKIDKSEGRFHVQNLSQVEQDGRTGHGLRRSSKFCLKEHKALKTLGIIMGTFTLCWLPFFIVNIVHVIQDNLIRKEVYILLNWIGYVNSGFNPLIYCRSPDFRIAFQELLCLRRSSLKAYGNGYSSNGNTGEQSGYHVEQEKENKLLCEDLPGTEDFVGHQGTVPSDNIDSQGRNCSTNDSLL
E coli growth: inhibitors of Escherichia coli growth | OD600, 23 h; hits give low values | OD600 absorbance (concentration not given with the values) | 0.21% of 330,000 active;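 active = OD600 absorbance below the run mean of sample wells minus 3.6 SD, in any replicate, cut at about 0.56 in these data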;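 note: stock transfer was 300 nL into about 60 µL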
Ecoli rRNA inh: inhibits bacterial ribosomal RNA function over humanized ribosomes; E. coli WT GFP vs humanized-ribosome RFP mutants, fluorescence, 24 h; hits give low values; DMSO median 0, no signal -100; GFP signal change (wild-type ribosome), % (concentration not given with the values); 1.6% of 350,000 active; AID 720706;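 active = significant combined selectivity score with lowered wild-type GFP, culture density cut under 30%, mutant RFP and density less affected; inactive = any of these conditions unmet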; note: one replicate is shown; some compounds called inactive have numbers as strong as hits
ALR H2O2 inh: inhibitors of human sulfhydryl oxidase ALR; P55789; 3.8% of 290,000 active; AID 485317; inhibition, % (concentration not given with the values); purified ALR, DTT oxidation, H2O2 HRP-luminol luminescence;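 active = mean and each replicate at 75% or more; inconclusive = only one of the two met; inactive = neither met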;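 note: stock transfer was 7.5 nL into about 7.5 µL; 0% = neutral wells and 100% = wells with inactivated enzyme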
Target sequence (P55789 whole entry, looked up): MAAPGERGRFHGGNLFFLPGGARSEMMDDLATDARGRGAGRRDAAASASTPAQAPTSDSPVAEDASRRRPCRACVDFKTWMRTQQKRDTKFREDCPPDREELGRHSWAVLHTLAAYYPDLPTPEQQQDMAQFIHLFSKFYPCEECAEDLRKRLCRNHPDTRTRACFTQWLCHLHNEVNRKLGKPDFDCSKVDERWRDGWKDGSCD
Ecoli rRNA inh OD600: recorded beside Ecoli rRNA inh, whose call it bears; OD600 change, %; measured here: OD600 growth;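 optical density of the mix in the first replicate; 0 = DMSO median and -100 = no signal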
Ecoli rRNA inh RFP: also measured in Ecoli rRNA inh; calls as there; RFP signal change, %; measured here: RFP humanized mutant strains;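 first replicate; 0 = DMSO median and -100 = no signal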
Active calls of the source: *; i = inactive; u = inconclusive; x = no result given. The list is partial; rates above refer to the full screens.

Every second line gives: HNF4A DNA FP | B2AR ag | E coli growth | FGF22 binding | Ecoli rRNA inh RFP | ALR H2O2 inh | Ecoli rRNA inh OD600 | UCH37 inh | Ecoli rRNA inh
O=C(Cc1cccc2ccccc12)Nc1ccc(OC(F)F)c(Cl)c1
    -0.5 | 8 | 0.69 | i | 0.2 | 4 | -18 | -1.2 | -5
O=C(NN1C(=O)/C(=C/C=C/c2ccccc2)SC1=S)c1ccncc1
    79* | 5 | 0.66 | i | 17 | 64 | -10 | 8.1 | -19
COc1ccc2[nH]c3nc(SCC(=O)Nc4ccc5c(c4)OCO5)nnc3c2c1
    0.9 | 0 | 0.76 | x | x | 46 | x | 3.9 | x
CCCN1CCN(S(=O)(=O)c2ccc3c(c2)NC(=O)C(C)C(=O)N3)CC1 (stereo not drawn)
    0.3 | -4 | 0.73 | i | -4.7 | -2 | 8 | 3.7 | 1
O=C(COC(=O)c1cccc(S(=O)(=O)N2CCc3ccccc32)c1)Nc1ccc(Cl)cn1
    -3.5 | 0 | 0.77 | i | 4.8 | -8 | 11 | 3.5 | 9
CSc1cccc(NC(=O)C2CCCN(S(C)(=O)=O)C2)c1 (stereo not drawn)
    2.0 | x | x | i | -0.8 | x | 4 | x | 6
O=C(Nc1cccnc1)C1CCCN1S(=O)(=O)c1ccc(Cl)c(Cl)c1 (stereo not drawn)
    2.8 | 21 | 0.65 | i | -2.4 | -4 | 0 | 0.7 | 0
Cc1ccc(NC(=O)Cn2c(O)c(N=NC(=O)c3cc([N+](=O)[O-])ccc3O)c3ccccc32)cc1
    x | x | 0.69 | x | x | -1 | x | 13 | x
O=C(CCC(=O)OCc1cccc(C(=O)Oc2ccccc2)c1)Nc1cccc2ccccc12
    3.0 | 3 | 0.7 | x | x | 6 | x | 1.0 | x
Cc1c(C(=O)N2CCOCC2)sc(NC(=O)c2ccc3c(c2)OCO3)c1C#N
    4.6 | -1 | 0.69 | x | x | 4 | x | 12 | x
Cc1ccc(-c2cnn(-c3cccc(C(F)(F)F)c3)c2N)cc1
    -2.7 | 6 | 0.75 | x | x | 1 | x | 3.7 | x
Cc1ccc(C2CC(c3ccccc3OC(F)F)Nc3ncnn32)cc1 (stereo not drawn)
    1.2 | -4 | 0.7 | x | x | -1 | x | -0.2 | x
COc1ccc(NC(=O)CCNC(=O)c2ccccc2)cc1S(N)(=O)=O
    2.2 | 8 | 0.66 | i | 0.1 | -4 | 6 | 1.1 | 2
O=C(Nc1ccccc1N1CCCCC1)c1cc(S(=O)(=O)N2CCOCC2)ccc1F
    -0.3 | 6 | 0.69 | i | -0.4 | x | 0 | 1.0 | 1
CCCCOc1ccc(C(=O)NCC(=O)NCC(c2ccc(OC)cc2)N2CCCC2)cc1 (stereo not drawn)
    4.0 | 2 | 0.67 | i | 3.2 | 2 | 1 | 1.2 | 11
Cc1cc(C(=O)Nc2cnn(Cc3ccc(Cl)cc3Cl)c2)no1
    4.5 | -8 | 0.75 | x | x | -9 | x | -1.2 | x
COC(=O)c1ccc(NC(=O)CSc2nnc(C)n2CC2CCCO2)cc1 (stereo not drawn)
    -0.8 | 4 | 0.7 | i | 1.2 | 2 | 5 | 0.5 | 3
Cc1scc(C(=O)N/N=C/c2ccc([N+](=O)[O-])o2)c1C
    -4.3 | 7 | x | i | -7.8 | -26 | -16 | x | -20
O=C(CSc1nncs1)NC(=O)Nc1ccc2c(c1)OCCO2
    -0.4 | -2 | 0.7 | i | 0.2 | -15 | 2 | -0.3 | -2
COc1ccc(NC(=O)CCS(=O)(=O)c2ccccc2)c(OC)c1
    0.2 | 3 | 0.68 | x | x | -10 | x | 0.8 | x
CC(C)C[C@@H](CN1CCCC1CN1C(=S)NC[C@@H]1Cc1ccccc1)N1C[C@H](Cc2ccc(O)cc2)N(CC2CCCCC2)C1=S (stereo partly drawn)
    -2.5 | x | x | i | 6.2 | x | 2 | x | 5
CC1(Cc2ccccc2C#N)C(=O)Nc2ccc(OC(F)(F)F)cc21 (stereo not drawn)
    -0.5 | x | x | i | 1.9 | x | -24 | x | -6
COc1ccc(NC(=O)CCN2CCN(S(=O)(=O)c3ccc(F)cc3)CC2)cc1
    -2.4 | 3 | 0.71 | i | -2.4 | 7 | 2 | -2.0 | 7
CCOC(=O)c1ccc(NC(=O)Cc2cccs2)cc1
    -1.1 | 1 | 0.68 | i | -1.1 | 4 | -14 | 0.2 | -3
Cc1cc(=O)n2[nH]c(-c3sccc3-n3c(C)ccc3C)cc2n1
    x | x | x | x | 7.5 | 34 | 8 | -0.4 | 15
CCc1ccc(CNC(=O)C2CCN(S(=O)(=O)N3CCCC3)CC2)cc1
    1.0 | -1 | 0.65 | i | -2.5 | 2 | 0 | 0.0 | 3
CCN1CCN(c2nc3ccccn3c(=O)c2C=O)CC1
    -13 | 5 | 0.67 | i | 0.4 | -9 | 6 | -2.6 | 13
COc1ccc2cc(C(=O)C3CCCN(Cc4cnc(C)s4)C3)ccc2c1 (stereo not drawn)
    -0.7 | -7 | 0.71 | i | -5.5 | -32 | -54 | -110 | -32
c1ccc(-c2nn[nH]n2)nc1
    2.3 | -2 | 0.66 | i | -0.9 | -11 | 3 | 4.7 | 5
O=C(O)CSCC(=O)Nc1ccccn1
    1.0 | -4 | 0.65 | i | -1.6 | x | 0 | 4.1 | 12
CCNC(=O)c1c(C)nc2ccccn12
    -1.4 | -4 | 0.71 | x | x | -2 | x | -3.7 | x
CSc1nc2nc(C)cc(-c3ccccc3)n2n1
    -4.6 | -29 | 0.7 | x | x | 0 | x | 1.2 | x
O=C1CCC([N+](=O)[O-])C(c2ccc(Cl)cc2)N1 (stereo not drawn)
    -3.1 | -1 | 0.73 | x | x | -3 | x | 4.5 | x
Cc1cccn2c(=O)c(C=NCc3ccco3)c(Nc3ccc(SC(F)F)cc3)nc12
    7.2 | -1 | 0.75 | x | x | -2 | x | 7.1 | x
CCOc1ccc(C(=O)CN2CCN(S(=O)(=O)c3ccc(Br)cc3)CC2)cc1
    1.0 | 3 | 0.76 | x | x | 6 | x | 1.0 | x
Cc1ccn2cc(CNC(=O)c3ccc(Br)o3)nc2c1
    3.4 | 0 | 0.66 | i | 1.1 | -4 | 12 | 5.7 | 1
O=C1NN(c2ccc(F)cc2)C(=O)/C1=C\C=C\c1ccco1
    -3.2 | 6 | 0.65 | x | x | 46 | x | 12 | x
Cc1ccc(C(NC(=O)Nc2ccccn2)C(Cl)(Cl)Cl)cc1F (stereo not drawn)
    -2.6 | 3 | 0.69 | i | 1.1 | x | -1 | 2.2 | -4
CNCCCOc1ccc(Cl)cc1C(C)(C)C
    0.3 | 19 | 0.59 | i | -24 | -2 | -78 | 2.7 | -60
CCC1CSC(=Nc2ccc(C)cc2)N1C(=O)CN1C(=O)NC2(CCCC2)C1=O (stereo not drawn)
    0.1 | 2 | 0.71 | i | 1.9 | 3 | -10 | -1.5 | -5
CCOC(=O)C1(C)CCN1C(=O)c1ccc(OC)cc1 (stereo not drawn)
    2.4 | x | x | i | -1.2 | x | 13 | x | 10
CCN(c1cccc(C)c1)S(=O)(=O)c1c(C)[nH]c(=O)[nH]c1=O
    -0.6 | 1 | 0.59 | x | x | -1 | x | 1.3 | x
CCNC(=O)c1ccc(CSc2ccc(Cl)cc2)cc1
    3.8 | 4 | 0.69 | i | -3.0 | -5 | 3 | 0.5 | 10
S=C(NCc1ccc(Cl)cc1)N1CCN(c2ccccn2)CC1
    -0.5 | 3 | 0.71 | i | 1.4 | x | 12 | 3.8 | 5
COc1cc(C)c(CN2CCC(n3nccc3NC(=O)C3CC3)CC2)cc1C
    4.1 | -3 | 0.71 | i | 0.4 | -2 | 6 | -2.3 | 6
Cc1ccc(S(=O)(=O)N[C@@H](Cc2ccccc2)C(=O)CCl)cc1
    -0.9 | 53* | x | i | 8.2 | 98* | -1 | x | -16
O=C(N/N=C/c1c(O)ccc2ccccc12)c1ccc[n+](CCO)c1
    1.9 | 2 | x | i | -2.0 | u | 0 | x | 1
CC(CNC1CCCCC1)OC(=O)c1ccccc1 (stereo not drawn)
    2.2 | -2 | 0.71 | i | x | x | x | 1.7 | x
Cc1ccc(NC2CNC(=O)NC2=O)cc1C (stereo not drawn)
    0.9 | -8 | 0.68 | i | -1.2 | x | 12 | 2.3 | 13
COc1ccc(CC(=O)Nc2cc(C)ccn2)cc1OC
    0.0 | -2 | 0.7 | i | 2.7 | -6 | 5 | 0.4 | 3
COc1ccc(C(=O)NC(=S)Nc2nc(-c3ccc(OC)c(Br)c3)cs2)cc1Br
    -0.3 | -16 | x | i | -0.3 | 1 | 0 | x | 0
Cc1cccc(N2CCN(C(=O)N3CCCCC3)CC2)c1C
    -0.7 | 0 | 0.7 | i | -0.8* | 6 | -24* | 3.7 | -36*
COc1ccc(OC)c(NC(=O)CSc2nnc(Cn3c(=O)sc4ccccc43)n2C)c1
    -1.8 | -4 | 0.72 | i | 3.4 | -15 | -1 | -0.6 | -2
O=C(CNC(=O)c1ccc(Br)o1)NC1CCCCC1
    3.9 | -6 | 0.69 | i | 1.0 | 0 | 25 | 0.4 | 12
COc1ccc2c(c1)nc(SCC(O)c1ccccc1)n2C (stereo not drawn)
    -4.2 | -1 | 0.7 | i | -6.6 | x | 1 | 2.0 | 4

Compounds above containing fluorine (9):
Every second line gives: HNF4A DNA FP | B2AR ag | E coli growth | FGF22 binding | Ecoli rRNA inh RFP | ALR H2O2 inh | Ecoli rRNA inh OD600 | UCH37 inh | Ecoli rRNA inh
O=C(Cc1cccc2ccccc12)Nc1ccc(OC(F)F)c(Cl)c1
    -0.5 | 8 | 0.69 | i | 0.2 | 4 | -18 | -1.2 | -5
Cc1ccc(-c2cnn(-c3cccc(C(F)(F)F)c3)c2N)cc1
    -2.7 | 6 | 0.75 | x | x | 1 | x | 3.7 | x
Cc1ccc(C2CC(c3ccccc3OC(F)F)Nc3ncnn32)cc1 (stereo not drawn)
    1.2 | -4 | 0.7 | x | x | -1 | x | -0.2 | x
O=C(Nc1ccccc1N1CCCCC1)c1cc(S(=O)(=O)N2CCOCC2)ccc1F
    -0.3 | 6 | 0.69 | i | -0.4 | x | 0 | 1.0 | 1
CC1(Cc2ccccc2C#N)C(=O)Nc2ccc(OC(F)(F)F)cc21 (stereo not drawn)
    -0.5 | x | x | i | 1.9 | x | -24 | x | -6
COc1ccc(NC(=O)CCN2CCN(S(=O)(=O)c3ccc(F)cc3)CC2)cc1
    -2.4 | 3 | 0.71 | i | -2.4 | 7 | 2 | -2.0 | 7
Cc1cccn2c(=O)c(C=NCc3ccco3)c(Nc3ccc(SC(F)F)cc3)nc12
    7.2 | -1 | 0.75 | x | x | -2 | x | 7.1 | x
O=C1NN(c2ccc(F)cc2)C(=O)/C1=C\C=C\c1ccco1
    -3.2 | 6 | 0.65 | x | x | 46 | x | 12 | x
Cc1ccc(C(NC(=O)Nc2ccccn2)C(Cl)(Cl)Cl)cc1F (stereo not drawn)
    -2.6 | 3 | 0.69 | i | 1.1 | x | -1 | 2.2 | -4

Screens from PubChem.
